Screens: PubChem, National Center for Advancing Translational Sciences (NCATS)
SARS PLpro yeast = blocks SARS-CoV papain-like protease in a yeast assay; S. cerevisiae expressing SARS-CoV PLpro, growth rescue; control for the full effect not named in the record; Potency, µM (titrated, usually from 32.9 µM), for inactives: top-dose activity, positive = growth rescue; 330,000 tested, 0.19% active; AID 485353; active means well fitted rising curve with a large enough effect; inconclusive means small, poorly fitted or top-dose-only effect; inactive means no such curve, though single readings can be large or run the other way; further: 0% is about no effect; nearly all actives have a fitted effect of over 55% in size; growth read by luminescence after 48 h
MARV entry inh = Marburg virus entry inhibition. AID 540276. Marburg virus pseudotyped entry inhibition, cell reporter; control for the full effect not named in the record; about a third of the inactives were read at about 46 µM. Potency, µM (highest dose often 37.8 µM), inactives show at the highest dose activity change, negative = inhibition, usual class: inhibitors. 300,000 tested, 1.8% active; active = well fitted inhibition curve with a large enough effect; inconclusive = small, poorly fitted or top-dose-only effect, or effect the other way; inactive = flat fitted curve, though single readings scatter; tested in HEK293 cells; about a fifth of its hits are not listed in these tables; further: on the % scale 0 is the no-effect control and ±100 the full control effect; luciferase read-out
RE007 growth inh = less growth of the S. pombe RE007 Vpr strain. S. pombe RE007 Vpr strain, BacTiter-Glo ATP luminescence, 24 h; control for the full effect not named in the record. Potency, µM (highest dose often 92.2 µM), inactives show at the top dose activity change, negative = less growth. 360,000 tested, 0.21% active; active = well fitted falling curve with a large enough effect; inconclusive = small, poorly fitted or top-dose-only effect; inactive = no such curve, though single readings can be large or run the other way;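 further: on the % scale 0 is the no-effect control and ±100 the full control effect; nearly all actives have a fitted effect of over 50% in size; the assay follows cell death caused by Vpr and the record does not say whether a fall means rescue or toxicity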
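Fission yeast RE007 carrying one integrated HIV-1 vpr copy, seeded at OD 0.01 in PMG+AL medium with 23 nL pinned compound. Grown 24 h at 30 degrees; viability read by BacTiter-Glo luminescence after 5 min.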
Cruzain inh noDet = inhibitors of Trypanosoma cruzi cruzain without detergent; purified cruzain, Z-FR-AMC fluorescence, no detergent; Potency, µM, without a hit: max response, negative = inhibition, usual class: inhibitors; 200,000 tested, 2.3% active; AID 1476;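 further: plate controls were enzyme without inhibitor for no effect and buffer without enzyme for full effect; nearly all actives have a fitted effect of over 40% in size; top concentration of the series not given in the record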
Target sequence (P25779 123-467 limits assumed): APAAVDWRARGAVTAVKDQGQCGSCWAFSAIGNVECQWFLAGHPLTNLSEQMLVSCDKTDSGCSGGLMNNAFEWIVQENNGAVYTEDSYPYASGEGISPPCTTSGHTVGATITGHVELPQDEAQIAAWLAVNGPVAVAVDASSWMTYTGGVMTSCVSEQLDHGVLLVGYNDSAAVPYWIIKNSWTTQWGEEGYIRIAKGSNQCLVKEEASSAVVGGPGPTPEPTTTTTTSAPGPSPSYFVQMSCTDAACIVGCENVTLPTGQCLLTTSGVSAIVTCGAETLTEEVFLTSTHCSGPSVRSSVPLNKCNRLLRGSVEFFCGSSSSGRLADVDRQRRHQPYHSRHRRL
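Purified cruzain at 1.5 nM, pre-incubated 15 min with compound at room temperature in 100 mM sodium acetate pH 5.5, 5 mM DTT, 0.00005% Triton X-100. Reaction started with 2 uM Z-FR-AMC; AMC fluorescence increase over 60 s gives rate.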
LASV entry inh = Lassa virus entry inhibition; Lassa virus pseudotype entry inhibition, cell reporter; control for the full effect not named in the record; Potency, µM (top dose mostly 37.9 µM), without a hit: at the highest dose activity change, negative = inhibition, most hits filed as inhibitors; 300,000 tested, 1.2% active; AID 540256; active means well fitted inhibition curve with a large enough effect; inconclusive means small, poorly fitted or top-dose-only effect, or effect the other way; inactive means flat fitted curve, though single readings scatter; tested in HEK293 cells; further: on the % scale 0 is the no-effect control and ±100 the full control effect; nearly all actives have a fitted effect of over 50% in size; luciferase read-out
Cruzain inh Det = cruzain (T. cruzi) inhibition with detergent | purified cruzain, Z-FR-AMC fluorescence, 0.01% Triton | 200,000 tested, 0.43% active | P25779 | AID 1478 | Potency, µM, for inactives: max response, negative = inhibition, usual class: inhibitors;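 further: plate controls were neutral wells for no effect and buffer without enzyme for full effect; nearly all actives have a fitted effect of over 40% in size; top concentration of the series not given in the record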
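Sodium acetate buffer (100 mM, pH 5.5) containing 5 mM DTT and 0.01% Triton X-100 hosted 1.5 nM cruzain and test compound for 15 min at room temperature. Cleavage of 2 uM Z-FR-AMC was then tracked by fluorescence.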
NS1 inh = blocks influenza NS1 protein function; AID 2326; 270,000 tested, 0.4% active; S. cerevisiae slowed by influenza A NS1, growth recovery by OD600; Potency, µM (top dose mostly 46.1 µM), for inactives: top-dose activity, positive = more growth; active means well fitted rising curve with a large enough effect; inconclusive means small, poorly fitted or top-dose-only effect; inactive means no such curve, though single readings can be large or run the other way; further: nearly all actives have a fitted effect of over 50% in size
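Read-out: OD600 growth recovery of NS1-expressing budding yeast. Cells grown overnight at 30C in -URA glucose medium, washed, resuspended and diluted 1:100 in 2% galactose assay medium, pH 6.0. Same strain lacking NS1 served as positive control.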
StopGo reporter = lowers the luciferase signal of an FMDV 2A StopGo reporter | human cells with a luciferase reporter of 2A StopGo recoding; control for the full effect not named in the record | Potency, µM (highest dose often 57.9 µM), without a hit: at the highest dose signal change, negative = less light | 410,000 tested, 1.2% active; active = well fitted falling curve with a large enough effect; inconclusive = small, poorly fitted or top-dose-only effect; inactive = no such curve, though single readings can be large or run the other way; tested in HEK293T cells; further: on the % scale 0 is the no-effect control and ±100 the full control effect; nearly all actives have a fitted effect of over 45% in size; luciferase light after 4 h
* marks the source's active call; other numbers are inactive results; ? = inconclusive; nt = not tested or not shown; & = joins results of further samples; [ ] = remark or other dose. Unless noted, the call rests on the fitted dose curve; in most records, active means well fitted curve in the direction sought with a large enough effect; inconclusive means small, poorly fitted or top-dose-only effect, or another doubt; inactive means no such curve, though single readings can be large; an effect the other way counts as inactive or inconclusive. Potency means the concentration at half of the fitted maximal effect.

SMILES	SARS PLpro yeast	MARV entry inh	RE007 growth inh	Cruzain inh noDet	LASV entry inh	Cruzain inh Det	NS1 inh	StopGo reporter
CCc1ccc(NC(=O)CCNS(=O)(=O)c2cccc3nsnc23)cc1	-5.9%	0.2%	6.2%	-4.5%	-10.0%	0.2%	-4.4%	nt
O=C(CC1C(=O)NCCN1Cc1cccc(Oc2ccccc2)c1)NCc1cccnc1 (centres undefined)	-0.7%	-7.5%[46.1 µM]	-2.0%	nt	-5.6%[46.1 µM]	nt	4.9%	-13.9%
O=C1N(Nc2ccccc2)C(c2ccc(Br)cc2)C12CCCCC2 (centres undefined)	16.7%	4.6%	18.0%	-8.8%	4.3%	-0.8%	-8.9%	6.8%
CC(=O)c1ccc(NC(=S)Nc2ccc(N3CCOCC3)cc2)cc1	-2.2%	?	0.9%	nt	-21.4%	nt	nt	2.8%
O=C(C(c1ccccc1)c1ccccc1)N1CCN(Cc2ccc(Br)cc2)CC1	6.7%	?	-3.0%	9.6%	-9.1%	-4.5%	-2.2%	?
Cc1cccc(NC(=O)CC2S/C(=N/c3nccs3)N(C)C2=O)c1 (centres undefined)	-6.4%	-14.8%	-2.4%	-2.2%	-0.1%	-4.3%	-4.7%	-6.5%
COc1ccc(/C(C)=N/Nc2ncc(Cl)cc2Cl)c(O)c1	?	4.7%	-6.7%	-2.0%	18.5%	-7.0%	6.8%	9.0%
c1ccc(N2CCN(c3ccccc3)C2c2cccs2)cc1	-9.3%	?	?	-9.9%	12.5%	-0.1%	0.8%	51.6%[activator]
CCN(C(=O)Nc1ccccc1OC)c1c(N)n(Cc2ccccc2)c(=O)[nH]c1=O	-1.9%	12.4%	1.2%	-3.2%	-6.7%	0.1%	8.3%	-23.8%
COc1ccc(NC(=O)c2cc(-c3ccc(C)cc3)on2)cc1	6.1%	10.6%[46.1 µM]	-7.8%	nt	11.7%[46.1 µM]	nt	-5.5%	-4.0%
CCCNC(=O)C1CCN(S(=O)(=O)c2ccc(Br)cc2)CC1	-1.5%	-2.1%	-8.9%	0.5%	-4.3%	4.6%	?	-14.0%
CC(C)(C)c1ccc(C(=O)NNC(=O)c2ccncc2)cc1	-4.5%	nt	14.4%	nt	nt	nt	7.1%	10.0%
CCN(CC)c1ncn(Cc2c(Cl)cccc2Cl)c2ncnc1-2	-1.1%	1.2%[46.1 µM]	-8.5%	-2.1%	?	-2.3%	-33.4%	?
CCOCCCN1C(=O)c2[nH]nc(-c3ccccc3O)c2C1c1ccc(CC)cc1 (centres undefined)	nt	?	nt	19.5%	nt	-13.8%	nt	0.0%
O=C(Cc1n[nH]c(=O)c2ccccc12)Nc1cc(C(F)(F)F)ccc1-n1cncn1	0.7%	19.1%	-15.9%	nt	-2.5%	nt	nt	?
C[C@H]1CCCC(=O)CCC/C=C/c2cc(O)cc(O)c2C(=O)O1	-24.0%	-7.8%	2.1%[18.4 µM]	-4.1%&-16.7%&-33.1%	nt	?	-44.8%	?
Cc1ccc(OCC(=O)Nc2c(C)nn(-c3ccccc3)c2C)c(Br)c1	-3.7%	-27.5%	1.5%	nt	12.8%	nt	nt	39.8µM*
Cc1cc(OCC(=O)Nc2ccccc2C(N)=O)c2c(C)cc(=O)oc2c1	5.2%	nt	10.9%	nt	nt	nt	-3.1%	-15.7%
CCCCC(c1nnnn1CS(=O)(=O)c1ccc(C)cc1)N1CCC(C(N)=O)CC1 (centres undefined)	14.0%	?	13.5%	nt	-3.9%	nt	-19.2%	72.6%[activator]
C[C@]12CC(O)C3C(CCC4=CC(=O)CC[C@@]43C)C1CCC2c1csc(-c2ccccc2)n1 (some centres undefined)	1.3%	nt	1.0%	nt	nt	nt	6.5%	-20.0%
COc1cc(Br)c(C(=O)c2nccc3cc(OC)c(OC)cc23)cc1OC	1.5%	?	-3.1%	nt	?	nt	0.3%	-6.8%
C/C(CC(=O)Nc1ccc(Cl)c(C(F)(F)F)c1)=N\NC(=O)c1cccc(O)c1	-9.2%	?	-6.4%	2.2%	?	-10.3%	-21.5%	-18.0%
CC1=C(C(=O)Nc2ccccc2C)C(c2ccccn2)n2ncnc2N1 (centres undefined)	nt	nt	nt	-8.7%	14.8%[46.1 µM]	-0.3%	nt	8.0%
CCCCn1c(N)c(N(CC(C)C)C(=O)CSc2n[nH]c(-c3ccc(C)cc3)n2)c(=O)[nH]c1=O	-4.2%	?	-9.6%	nt	-9.0%	nt	nt	5.4%
CN(C)Cc1c(C(=O)N/N=C/c2ccccc2OCc2ccc(F)cc2)nnn1-c1nonc1N	7.3%	-11.7%[46.1 µM]	6.9%	nt	26.7%	nt	19.2%	2.1%
CCOC(=O)c1cnn(Cc2cccc(Cl)c2)c1C	-0.4%	6.6%[46.1 µM]	10.8%	nt	-2.5%	nt	nt	?
Cc1noc2ncnc(Oc3ccc(Cl)cc3Cl)c12	-0.9%	23.3%[46.1 µM]	-13.0%	nt	?	nt	-4.3%	-26.7%
CCOC(=O)c1cnc(NCc2ccccc2)nc1C	-2.4%	?	-8.3%[3.69 µM]	-10.2%	-13.7%	0.9%	-7.0%	22.1%
COCCn1c(SC2CCOC2=O)nc2ccccc2c1=O (centres undefined)	-0.4%	2.2%[46.1 µM]	11.4%	nt	9.3%	nt	nt	4.1%
CCOC(=O)N1CCC(N2Cc3cccc(C(=O)N4CCN(c5cccc(C)c5C)CC4)c3C2=O)CC1	-2.9%	?	10.3%	nt	-47.1%[46.1 µM]	nt	nt	-11.4%
Cn1c(-c2sc3cc(C(F)(F)F)cnc3c2-c2cccnc2)n[nH]c1=S	-6.0%	-16.7%	7.6%	-0.1%	-7.3%	-1.7%	12.7%	-18.4%
Cc1cc2nnc(SCC(=O)Nc3cc(S(=O)(=O)N4CCOCC4)ccc3Cl)n2c2ccccc12	13.8%	7.94µM*	-1.0%	?	14.1%	2.9%	10µM*	?
Cc1cc(C)c(C)c(S(=O)(=O)NNC(=O)c2cccc(S(=O)(=O)N3CCOCC3)c2)c1C	-16.1%	-9.1%	0.7%	14.8%	-10.4%	-0.2%	-5.0%	88.4%[activator]
COCCNc1nc(NCc2ccccc2)c2cnn(C)c2n1	-3.1%	nt	-9.2%	nt	nt	nt	16.7%	-16.8%
COc1ccc(OC)c2[nH]c(=O)c(CCNS(=O)(=O)c3ccc(C)cc3)cc12	3.4%	-22.4%	3.3%	-14.7%	12.8%	-2.1%	-17.6%	-13.1%
CCCN1CCO[C@@H]2c3cc(O)ccc3OC[C@@H]21	nt	25.9%	nt	19.7%	nt	-1.5%	nt	0.3%
O=C(c1ccccc1)c1ccc(OCC(O)CN2CCOCC2)cc1 (centres undefined)	nt	-7.1%[46.1 µM]	-5.1%	nt	-0.5%	nt	-4.0%	-16.5%
CCN(CCNc1ccc([N+](=O)[O-])c2cccnc12)S(=O)(=O)c1ccc(Cl)cc1	-5.2%	-23.3%	12.5%	?	-19.2%	0.7%	4.7%	-2.9%
Cc1cc(S(=O)(=O)Nc2ccc(C(=O)NCc3cccnc3)cc2)ccc1F	1.7%	5.6%	-0.3%	nt	5.7%	nt	nt	7.3%
O=C(O)/C=C/C(=O)NC1CCC(CC2CCC(NC(=O)/C=C/C(=O)O)CC2)CC1 (centres undefined)	0.6%	-5.6%[46.1 µM]	-8.3%	nt	3.9%	nt	5.1%	7.9%
Cc1ccc(C)c(NC(=O)CN2C(=O)COc3ccc(Cl)cc32)c1	nt	-5.0%[46.1 µM]	nt	17.0%	8.1%[46.1 µM]	-1.5%	nt	-7.7%
COc1cccc(CCNCc2cccc(C(F)(F)F)c2)c1	0.3%	?	-10.2%	nt	-2.5%	nt	nt	-10.8%
COc1ccc(CCNC(=O)CSc2nc(-c3ccco3)cc(C(F)(F)F)n2)cc1OC	-12.2%	10.9%	?	11.2%	2.7%	-5.2%	-0.2%	nt
C/C=C\C(=O)Nc1cccc(C2=NOC3(C2)C[C@@H](C(N)=O)N(C(=O)c2ccc(Cl)cc2)C3)c1 (some centres undefined)	2.2%	nt	-13.7%	nt	nt	nt	-5.7%	-11.6%
CCC1(c2ccc(F)cc2)NC(=O)N(CC(=O)c2ccc[nH]2)C1=O (centres undefined)	24.2%	4.2%	-6.3%	3.9%	-10.6%	-0.8%	3.5%	0.0%
CCOc1ccccc1CNCc1ccc(F)cc1	3.1%	?	-21.6%	nt	-13.1%	nt	0.9%	-10.4%
Cc1ccc(C2N=C(N)Nc3nc4ccccc4n32)cc1 (centres undefined)	1.4%	-14.0%&-14.0%[46.1 µM]	7.3%	-2.3%	-7.6%	-1.0%	nt	-9.2%&-2.6%
Cc1onc(-c2c(Cl)cccc2Cl)c1CO/N=C(\C#N)c1c(Cl)cccc1Cl	-1.7%	?	2.0%	nt	-24.4%	nt	-0.8%	-25.7%
COc1ccc(N(CC(=O)N2CCN(Cc3ccccc3)CC2)S(C)(=O)=O)cc1	5.0%	nt	-1.8%	nt	nt	nt	21.0%	1.3%
COc1ccc(C(=O)NC2CCCCCC2)cc1S(=O)(=O)N1CCCC1	-5.5%	26.9%[46.1 µM]	-9.3%	nt	20.1%	nt	nt	47.5%[activator]
CCOC(=O)C1=C(COC(=O)/C=C/c2cc(Br)ccc2F)NC(=O)NC1C (centres undefined)	2.8%	2.6%	-13.4%	nt	2.0%	nt	nt	-14.6%
Cc1cccc(OCC(=O)N/N=C/c2cc([N+](=O)[O-])ccc2N2CCOCC2)c1	-1.0%	-13.1%	5.8%	27.7%	-3.7%	-6.6%	8.9%	-18.0%
Cc1ccccc1NC(=S)NCc1ccc(Cl)cc1	?	?	-2.5%	-8.3%	-19.4%	-4.1%	-28.0%	27.2%
COc1cccc(N2CCN(Cc3ccc(Cl)cc3)CC2)c1	2.6%	2.2%	-29.5%	-4.8%	21.2%	1.0%	-48.1%	0.0%
O=C(NNS(=O)(=O)c1ccccc1)c1ccc(O)cc1	16.3%	-0.4%	-9.7%	-2.6%	-16.6%	6.3%	9.8%	2.3%
COc1cccc(CNC(=O)Cn2c(SCC(=O)Nc3ccc(C)c(C)c3)nc3ccccc32)c1	nt	nt	nt	-2.2%	-1.7%[46.1 µM]	-0.2%	nt	3.0%
